HSD17B inhib = inhibitors of human HSD17B10 dehydrogenase; Q99714; recombinant HSD17B10, NADH fluorescence kinetic; many of its hits are not listed in these tables; Potency, µM (doses to about 57.1 µM), without a hit: at the top dose activity change, negative = inhibition, actives largely listed as inhibitors; actives 7.6% (n = 75,000); AID 893; active means well fitted inhibition curve with a large enough effect; inconclusive means small, poorly fitted or top-dose-only effect; inactive means no such curve, though single readings can be large or run the other way;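 further: the protocol describes HADH2 (HSD17B10) and not the HSD17B4 of the title; nearly all actives have a fitted effect of over 70% in size; most hits overshoot -100% by far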
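Enzyme plus compound, 15 min room temperature; substrate mix added (NAD+ 1 mM, beta-hydroxybutyryl-CoA 90 uM final); plates read kinetically for NADH fluorescence. HADH2 was His-tagged, E. coli-derived, 20 nM.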
Active calls of the source: *; u = inconclusive; [ ] = dose if it differs, or a comment. On the % scale 0 is the no-effect control and ±100 the full control effect; potency means the concentration at half of the fitted maximal effect. Only part of the results is shown. The share of hits here may be higher or lower than overall.

SMILES	HSD17B inhib
CN1CCN(c2ncc3nc(CCc4ccccc4)c(=O)n(Cc4ccc(F)cc4)c3n2)CC1	25.1µM*
CCCNC(=O)CS(=O)Cc1nc(-c2ccc(OC)cc2)oc1C (stereo unspecified)	-25.7%
N/C(CC(=O)Nc1cccc(C(F)(F)F)c1)=N/O	3.9%
Cn1c(=O)n(Cc2ccccc2F)c2ccccc21	-2.4%
CCOC(=O)N1CCC(NC(=O)c2csc3c2CCCC3)CC1	1.7%
Cn1nnnc1SCC(=O)NC(=O)NCc1ccccc1	4.6%
O=C(NCc1ccco1)c1noc2c1CCCCC2	5.2%
Cn1c(N)c(C(=O)COC(=O)c2ccnc3ccccc23)c(=O)n(C)c1=O	-1.0%
O=C(CCn1c(=O)c2ccccc2n(CC(=O)NCCC2=CCCCC2)c1=O)NCc1ccco1	-1.6%
Cc1cc(C)cc(Nc2cc(=O)n(C3CCCCC3)c(=O)[nH]2)c1	u
CCOCCOC(=O)C1=C(C)Nc2ccc(C)cc2S1	-17.9%
CCC(c1nnnn1C1CCCCC1)N(Cc1ccco1)Cc1cc2ccc(OC)cc2[nH]c1=O (stereo unspecified)	u
CC1=C(C(=O)Nc2cccc(C)n2)C(c2ccc3c(c2)OCO3)C2=C(CC(c3ccco3)CC2=O)N1 (stereo unspecified)	u
O=C(c1ccco1)N(Cc1cc2ccccc2[nH]c1=O)C1CCCCC1	3.7%
CC1(C)C(=O)C=C[C@]2(C)C1CC(=O)[C@]1(C)C2CC[C@@]2(C)C(c3ccoc3)OC(=O)C3O[C@@]321 (stereo partly specified)	-1.8%
CCOC(=O)Nc1sc(C)nc1-c1ccccc1	1.1%
C=C(C)C(=O)OCC(C)O (stereo unspecified)	12.5%
O=C(O)CCn1cnc2c(=S)nc[nH]c21	2.1%[11.4 µM]
CC(=O)Nc1cc(NC(C)=O)c(CC(C)C)s1	0.0%
COc1ccccc1NC(=O)Nc1ccc2c(c1)OCCO2	5.3%
O=C(OC1CSc2nc3ccccc3n2C1)c1ccco1 (stereo unspecified)	4.3%
CCN(Cc1ccccc1)S(=O)(=O)c1ccc(S(=O)(=O)N2CCN(CCC#N)CC2)cc1	u
O=C(COC(=O)C1=COCCO1)Nc1ccc2c(c1)OCO2	-5.1%
CCOC(=O)N1CCC(NC(=O)c2ccc3snnc3c2)CC1	0.7%
CCCOc1ccccc1C1NC(=O)NC(C)=C1C(=O)OCCOC (stereo unspecified)	-1.0%

Among those listed so far, 10 contain sulfur.
SMILES	HSD17B inhib
CCCNC(=O)CS(=O)Cc1nc(-c2ccc(OC)cc2)oc1C (stereo unspecified)	-25.7%
CCOC(=O)N1CCC(NC(=O)c2csc3c2CCCC3)CC1	1.7%
Cn1nnnc1SCC(=O)NC(=O)NCc1ccccc1	4.6%
CCOCCOC(=O)C1=C(C)Nc2ccc(C)cc2S1	-17.9%
CCOC(=O)Nc1sc(C)nc1-c1ccccc1	1.1%
O=C(O)CCn1cnc2c(=S)nc[nH]c21	2.1%[11.4 µM]
CC(=O)Nc1cc(NC(C)=O)c(CC(C)C)s1	0.0%
O=C(OC1CSc2nc3ccccc3n2C1)c1ccco1 (stereo unspecified)	4.3%
CCN(Cc1ccccc1)S(=O)(=O)c1ccc(S(=O)(=O)N2CCN(CCC#N)CC2)cc1	u
CCOC(=O)N1CCC(NC(=O)c2ccc3snnc3c2)CC1	0.7%

Going on with the list.
SMILES	HSD17B inhib
COC(=O)N[C@H](c1ccccc1)[C@@]1(C)C[C@@H]1[C@@H](C)C(=O)Nc1ccc2ccccc2c1	12.0%
CC1CCCC(C)N1C(=O)CSc1nnc(NC(=O)Cc2cccs2)s1 (stereo unspecified)	-15.4%
COc1cc(OC)c(C(=O)NC2CC(C)(C)NC(C)(C)C2)cc1OC	-14.2%
O=C(CCN1C(=O)c2ccccc2C1=O)Nn1cnnc1	-1.7%
O=C(OCC(COC(=O)c1ccccc1)(COC(=O)c1ccccc1)COC(=O)c1ccccc1)c1ccccc1	-6.0%
Cc1csc2ncc(C(=O)N3CCc4ccccc43)c(=O)n12	-13.8%
Cc1oc2c(CN3CCCC3)c(O)ccc2c(=O)c1-c1ccc(Br)cc1	31.6µM*
Cn1c(=O)cc(SCC(=O)NCC2CCCO2)c2ccccc21 (stereo unspecified)	20µM*
CCn1c2ccccc2c2cc(NC(=O)Cc3ccc(S(=O)(=O)N4CCOCC4)s3)ccc21	-14.0%
CC1CCCCC1NC(=O)c1nnc(Cc2ccc(Cl)cc2)o1 (stereo unspecified)	1.6%
CC(=O)O[C@@H]1C[C@]2(C)[C@H](C[C@@H](O)[C@H]3[C@@]4(C)CC[C@@H](O)[C@@H](C)[C@@H]4CC[C@@]32C)/C1=C(\CCC=C(C)C)C(=O)O	3.1%
CC(C(=O)NC1CCCc2ccccc21)N1CCN(Cc2ccc3c(c2)OCO3)CC1 (stereo unspecified)	4.0%
CC1(NC(=O)N2CCCCC2)CCS(=O)(=O)C1 (stereo unspecified)	12.4%
CC(=O)N1CCN(c2ccc(NCc3ccc(F)cc3)cc2)CC1	-3.3%
O=C(OCc1cc2ccccc2[nH]c1=O)c1ccccn1	7.4%
COc1ccc(-n2c(Cc3cccn3C)nnc2SCC(=O)N2CCOCC2)cc1	7.4%
COc1ccc(OC)c2c(C)cc(N3CCCN(C)CC3)nc12	u
CC1Cc2ccccc2N1C(=O)CSCC(=O)O (stereo unspecified)	-3.8%
O=C(O)CCCC(=O)NCCc1ccncc1	4.2%
COc1ccc(-n2cnc3c(sc4nccc(N(C)C)c43)c2=O)cc1	u
Cc1cc(C(=O)O)c(CCCN)s1	-3.0%
COc1ccc(N2CCN(C(=O)c3ccc(C)c(Cl)c3)CC2)cc1	7.8%
Cc1cc(C)n2nc(SCc3nc4ccccc4[nH]3)nc2n1	3.0%
COc1ccc(S(=O)(=O)N(C)CC(=O)N2CCOCC2)cc1Cl	0.4%
CC1Oc2ccccc2N(CC(=O)c2ccccc2)C1=O (stereo unspecified)	15.6%
Other entries:
SMILES	HSD17B inhib
CCOc1ccccc1-n1c(SCC(=O)NCc2ccco2)nnc1-c1ccncc1	5.9%
COc1ccc(OC)c(S(=O)(=O)N2Cc3ccccc3CC2C(=O)O)c1 (stereo unspecified)	2.8%
Cc1cc(NC(=O)C2CCN(S(=O)(=O)c3cnc[nH]3)CC2)ccc1Br	3.7%
Cc1noc(C)c1CSc1nnc(-c2cccnc2)n1C1CCCCC1C (stereo unspecified)	2.2%
CC1=C(C(=O)OC(C)C)C(c2ccccc2Cl)CC(=O)N1 (stereo unspecified)	2.7%
CC(C)OC(=O)c1cccnc1SCc1cc(=O)n2ccccc2n1	-29.3%
CCCCCCP(=O)(O)c1ccccc1	13.6%
NC(=O)c1nsnc1-c1ccccc1O	1.3%
OC[C@@H]1O[C@@H](N2CCN([C@@H]3O[C@@H](CO)[C@@H](O)[C@H](O)[C@H]3O)CC2)[C@@H](O)[C@H](O)[C@H]1O	3.0%[11.4 µM]
O=C(CS(=O)(=O)Cc1ccccc1)Nc1nc2c(s1)CCCC2	9.6%
COC(=O)[C@@H]1C(O)[C@@H](C(=O)OC)[C@H](C)N(C)[C@@H]1C (stereo partly specified)	9.8%[11.4 µM]
Cc1cc(C)n2nc(CC(=O)NC3CCCCCCC3)nc2n1	11.6%
Cc1c(CNC(=O)c2nn3c(c2Cl)NC(c2ccccc2)CC3C(F)(F)F)cnn1C (stereo unspecified)	7.1%
COc1cccc(OC)c1C(=O)Nc1cc(Cl)ccc1N1CCOCC1	1.9%
CCN(CC)C(=O)Cn1c(=O)n(Cc2ccccc2Cl)c2c1c(=O)n(C)c(=O)n2C	16.2%
Cc1cc(Nc2ccccc2)n(-c2ccccc2)n1	-2.1%
CCOc1ccc(NC(=O)CSc2nnc(-c3ccccc3)n2N)cc1	7.0%
NC(=O)c1ccccc1NC(=O)CCCN1C(=O)CCC1=O	-4.6%
COc1ccccc1C(=O)N1CCCN(C(=O)c2ccccc2OC)CC1	0.7%
O=C1[C@H]2[C@H]3[C@H](O)[C@H](O)C/C(=N/OCc4ccccc4)[C@H]3CC[C@@H]2C(=O)N1c1cccc(Oc2ccccc2)c1	-5.9%[11.4 µM]
Cc1ccc(C)c(OCc2nc(-c3cccnc3)no2)c1	-12.7%
CCNC(=O)N1CCNC(=O)C1CC(=O)OC (stereo unspecified)	11.3%
O=c1cc(-c2ccc(O)cc2O)oc2ccccc12	2.8%
O=c1cc(N2CCOCC2)[nH]c(=O)n1-c1ccc(Cl)cc1	13.4%
CCCCn1c(CN2CCN(c3cccc(Cl)c3)CC2)nc2c1c(=O)n(C)c(=O)n2C	3.6%
Continued:
SMILES	HSD17B inhib
CCOC(OCC)P(=O)(O)CCCNCc1ccc(Cl)c(Cl)c1	9.3%
COc1ccc(N2CCN(C(CNC(=O)c3cccc(Cl)c3)c3cccnc3)CC2)cc1 (stereo unspecified)	10.1%
CCn1c(SCC(=O)NC(C)(C)C)nc(O)cc1=O	10.9%
O=C(CN1C(=O)c2ccccc2S1(=O)=O)N1CCN(Cc2ccc3c(c2)OCO3)CC1	11.8%
CCCCC(CC)CNC(=O)CN(C)S(=O)(=O)c1cccc2nsnc12 (stereo unspecified)	0.4%
COc1ccc(OC)c(NC(=O)[C@H]2CC=CC[C@H]2C(=O)O)c1	-2.2%
c1ccc2c(c1)CCCN2Cc1nnnn1C1CCCC1	2.4%
O=C(Nc1ccccc1)C1CC(=O)N(C2CCCCC2)C1 (stereo unspecified)	3.3%
O=C(CSc1nc(-c2ccc(F)cc2)cs1)N1CCOCC1	8.2%
O=C(Nc1ccc(N2CCN(C(=O)c3ccccc3)CC2)cc1)c1cc2ccccc2o1	3.16µM*
O=C(NCc1ccc2c(c1)OCO2)c1nn(-c2ccccc2)c(=O)c2ccccc12	u
CS(=O)(=O)N1CCC2(CC1)CN(c1ncccn1)C2	u
Cc1ccc(-n2ncc3c(NCc4ccccc4)ncnc32)cc1	u
COc1ccc(NC(=O)C2CCN(C(=O)c3ccccc3)CC2)cc1OC	5.1%
CCNc1nc(N)nc(Oc2ccc(OCC)nn2)n1	-4.6%
O=C(CCS(=O)(=O)c1cc(Br)cc2c1N(C(=O)C1CC1)CC2)NCC1CCCO1 (stereo unspecified)	-5.0%
CCCOC(=O)C1=C(C)NC2=C(C(=O)CCC2)C1c1cccs1 (stereo unspecified)	31.6µM*
O=C(c1ccc(CNS(=O)(=O)c2cccc(C(F)(F)F)c2)cc1)N1CCOCC1	u
OCCN(Cc1ccccc1)Cc1ccccc1Cl	6.1%
Cc1noc(C)c1C(=O)N1CCC[C@@]2(CCN(Cc3ccc(C#N)cc3)C2)C1	1.1%
Cc1cc(NC(=O)CCC(=O)N(CC(=O)NC2CCCC2)c2ccc3c(c2)OCCO3)no1	7.6%
Cc1cccc(N2C(=O)CC(N3CCN(c4cccc(C(F)(F)F)c4)CC3)C2=O)c1 (stereo unspecified)	-8.6%
O=C(c1ccccc1NS(=O)(=O)c1ccc(Br)s1)N1CCOCC1	5.7%
O=c1[nH]c2ccc(S(=O)(=O)N3CCN(C4CCCCC4)CC3)cc2[nH]c1=O	31.6µM*
O=C(NCc1ccco1)C1c2ccccc2Oc2ccccc21	-7.1%
New compounds follow.
SMILES	HSD17B inhib
O=C(Nc1cccc(-c2cn3cccnc3n2)c1)c1ccc(Br)o1	3.16µM*
CCC(=O)N(Cc1cc(=O)[nH]c2ccccc12)C1CCCCC1	16.9%
O=C(c1ccncc1)N1CCC2(CC1)CN(c1ccccc1)C2	2.9%
COc1ccc2[nH]cc(C(=O)CN3CCN(C(=O)c4ccco4)CC3)c2c1	-8.7%
CC[C@H](C(=O)c1cccs1)C(O)(C(F)(F)F)C(F)(F)F	0.7%[11.4 µM]
CCS(=O)(=O)c1nc2ccccc2n1CC(=O)N1CCCCC1	9.0%
COc1ccc(NC(=O)Nc2cccc(C)n2)cc1	13.6%
COc1ccc(-n2c(SCC(N)=O)nnc2-c2ccccc2F)cc1	9.3%
COc1cccc(-c2csc(N3CCN(CC(=O)Nc4ccc5c(c4)OCO5)CC3)n2)c1	-3.1%
COc1cc2c(cc1OC)CN(S(=O)(=O)c1ccc3c(c1)OCCO3)CC2	1.7%
Cc1cc(C)nc(N(C#N)CC(=O)Nc2ccccc2)n1	-5.1%
COc1cccc(Cn2c(=O)c(C)nc3cnc(N4CCN(C)CC4)nc32)c1	-15.6%
Cc1cc(C)c(S(=O)(=O)N(CC(=O)O)C2CCCCC2)c(C)c1	10.3%
Cc1cnnc2c1-c1nonc1CC2	4.5%
C=CCn1c(SCC(=O)c2cccs2)nc2sc(C)cc2c1=O	2.9%
COCCNC(=O)[C@@]1(Cc2ccccc2)C=C[C@@H](C)N1C(C)=O	-6.1%
Cc1cc(N2CCN(C)CC2)nc2ccc(NC(=O)c3ccc4c(c3)OCO4)cc12	111.1%[activator]
COc1ccccc1-c1nnc(NC(=O)OCC(C)C)s1	10µM*
CCCC1(C(=O)OC)C=C2C(=C(c3ccccc3)C(=O)C2C)CN1 (stereo unspecified)	u
O=C(OCCN1CCCCC1)c1ccc(O)cc1	5.2%
CC(=O)N1CCn2c3c(c(=O)c4cc(C)ccc42)CCC31 (stereo unspecified)	u

High-throughput results from PubChem BioAssay.
